Assay outcomes as filed in PubChem.
Vaccinia pol inh = blocks vaccinia virus processive DNA synthesis; in vitro processive DNA synthesis, absorbance read-out; hits give low values; some inactives read as strong as hits; normalized absorbance, % (test concentration not listed); 46,000 compounds, 0.94% hits;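 active means replicate mean up to 90% and picked by the depositor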;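 further: 100% = median of the test wells of a plate; 100 nL library stock went into each well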
* marks the source's active call; other numbers are inactive results; & = joins results of further samples. An excerpt; rates above refer to the full screens.

Start of the data: the first 3 records, to show the layout:
smiles	Vaccinia pol inh
CCCSc1ncc(Cl)c(C(=O)Nc2ccc(S(=O)(=O)Nc3nccs3)cc2)n1	102
Cn1c(=NC(=O)C2CCCCC2)sc2ccccc21	99
Nc1nc(-c2ccccc2)c(-c2nc3ccccc3[nH]2)s1	94

Results, previewed entries included:
smiles	Vaccinia pol inh
CCCSc1ncc(Cl)c(C(=O)Nc2ccc(S(=O)(=O)Nc3nccs3)cc2)n1	102
Cn1c(=NC(=O)C2CCCCC2)sc2ccccc21	99
Nc1nc(-c2ccccc2)c(-c2nc3ccccc3[nH]2)s1	94
OCc1c[nH]c(=S)n1Cc1ccccc1	87
COC(=O)C1=C(NC(=O)C2CCCCC2)CCS1	100
CCOc1ccccc1NC(=O)COC(=O)C1CC1C (stereo unspecified)	103
O=C(COc1ccccc1)Nc1c2c(nn1-c1ccc(F)cc1)CSC2	100
CCN(CC)C(=O)n1cnc2cc(C)c(C)cc21	100
CCOC(=O)c1ccc(N2N=C(C(F)(F)F)/C(=C/C=C/c3ccco3)C2=O)cc1	100
CC(C)CCNS(=O)(=O)Cc1ccccc1	101
O=C(NCCOc1ccc(Cl)cc1)c1cccs1	98
NC(=O)c1c(NC(=O)CSc2nc(-c3cccs3)cc(C(F)(F)F)n2)sc2c1CCC2	102
CCc1ccccc1NC(=O)Cn1nnc(C(=O)NCc2ccccc2)c1N	99
CCC(CO)NC(=O)c1cc2sc3ccccc3c2s1 (stereo unspecified)	92
O=C(CCSc1ccccc1)Nc1nc(-c2cccs2)cs1	101
CN(C)CCCO[C@H]1[C@@H](C(O)CO)OC2OC(C)(C)O[C@@H]21 (stereo partly specified)	100
Fc1ccc(CSc2ncnc3ccccc23)cc1	96
CCc1cccc(NC(=O)CSc2nc3c(c(=O)[nH]2)CCCC3)c1	94
Cc1cc(CNC(=O)c2cnc3ccccc3n2)c(C(F)(F)F)o1	101
COc1ccccc1NC(=O)c1ccc(-c2ccccc2)s1	102
COc1ccc(/C(=N/O)c2nccc3cc(OC)c(OC)cc23)cc1OC	100
CC(C)(C)c1ccc(-c2cc3ncc(-c4ccccc4)c(N)n3n2)cc1	100
COc1ccc(/C=C2\Cc3ccccc3C2=O)cc1	100
O=C(/C=C/NCc1ccccc1)c1ccc(Br)cc1	101
CSC(=Nc1cc(-c2ccccc2)[nH]n1)Nc1ccccc1	99
O=C(NCc1ccco1)c1cc(-c2ccc(F)cc2)nc2ccccc12	100
O=C(NCc1ccccc1)C(NS(=O)(=O)c1cccs1)c1ccccc1 (stereo unspecified)	98
N=c1c(C(=O)NCC2CCCO2)cc2c(=O)n3ccccc3nc2n1CCCN1CCOCC1 (stereo unspecified)	100
COc1ccc(-c2cc(C(F)(F)F)nc(N3CCOCC3)n2)cc1	105
CCOc1ccc2nc(SCC(=O)N(C)C)[nH]c2c1	103
Cc1cccc(NC(=O)c2ccc3c(c2)CCCC3)n1	94
CCN(CC)c1ncnc2sc(-c3ccccc3)cc12	99
COC(=O)c1ccc(C(=O)Nc2sccc2C#N)cc1	99
CCc1ccccc1NC(=O)NCCN1CCN(c2ccccc2)CC1	95
CC(C)(C)c1ccc(NC(=O)N(CCC#N)CCc2ccccn2)cc1	83
CC1CN(C(=O)c2ccc(N)cc2)CC(C)O1 (stereo unspecified)	104
CCN(CCS(=O)(=O)c1ccc(Cl)cc1)S(=O)(=O)c1ccc(Cl)cc1	109
COc1ccc2c(c1)nnc1n[nH]c(=O)n12	94
Cc1ccc(Nc2nnc(C3C(=O)N(C)C4(C)CC3c3cc(Br)ccc3O4)s2)cc1 (stereo unspecified)	88
COc1cccc(NC(=O)Cn2ncc3c4ccccc4n(Cc4ccccc4)c3c2=O)c1	104
C=C1N(c2ccc(Cl)cc2)C(=O)OC12CCCCC2	101
O=c1c2ccccc2c(-c2cc(C(F)(F)F)cc(C(F)(F)F)c2)nn1CCO	100
CC1CCN(C(=O)c2cc(Cl)nc3ccccc23)CC1	103
O=C1Nc2ccccc2C1Cc1ccc(N=Cc2cc(Cl)cc(Cl)c2O)cc1 (stereo unspecified)	99
O=C(O)CSc1c2c(nc3cc(C(=O)NC4CCCCCC4)ccc13)CCC2	85
Cc1ccc(-c2nn(CCC(=O)N3CCCC3)c(=O)c3ccccc23)cc1	101
O=C(NC1CCCC1)c1nnc(Cc2ccc(Cl)cc2)o1	101
Cc1[nH]c2ccccc2c1C(Nc1nccs1)c1ccc(C(C)C)cc1 (stereo unspecified)	106
CC(C)NC(=O)COc1ccc2ccccc2c1	103
O=C(COC(=O)CCc1c[nH]c(=O)[nH]1)Nc1cccc(Cl)c1	100
Cc1[nH]n(-c2ccccc2)c(=O)c1/C=C1\C=c2ccccc2=NC1=O	100
O=C(COc1ccc(Br)cc1)OC1CCS(=O)(=O)C1 (stereo unspecified)	101
COc1ccc(S(=O)(=O)N2CCN(C(=O)c3cc(-c4ccccc4OC)n[nH]3)CC2)cc1	104
O=c1/c(=C/c2ccccc2)sc2nc(-c3ccco3)nn12	99
O=C(CCCN1C(=O)/C(=C/c2ccccc2)SC1=S)Nc1ccc(C(=O)O)cc1	101
Cc1ccc(N2CCN(C(=O)Cn3nc(Cc4cccnc4)c4ccccc4c3=O)CC2C)cc1 (stereo unspecified)	102
COc1ccc(N=c2oc3ccccc3cc2C(N)=O)cc1	101
COc1ccc(NS(=O)(=O)c2ccc3c4c(cccc24)C(=O)S3)cc1	100
O=C(CSc1nc2ccccc2s1)N1CCCCC1	97
CC1CN(S(=O)(=O)c2ccc(C3CCCCC3)cc2)CC(C)O1 (stereo unspecified)	101

Four compounds out of the list, arranged by molar mass, largest number first.
smiles	Vaccinia pol inh
O=c1c2ccccc2c(-c2cc(C(F)(F)F)cc(C(F)(F)F)c2)nn1CCO	100
O=C(COc1ccc(Br)cc1)OC1CCS(=O)(=O)C1 (stereo unspecified)	101
CC1CN(S(=O)(=O)c2ccc(C3CCCCC3)cc2)CC(C)O1 (stereo unspecified)	101
O=C(NC1CCCC1)c1nnc(Cc2ccc(Cl)cc2)o1	101

(more compounds)
smiles	Vaccinia pol inh
Oc1ccc2c(CN3CCCCC3)c(O)ccc2c1CN1CCCCC1	102
O=S(=O)(Nc1ccncc1)c1ccc2ccccc2c1	98
CCOC(=O)N1CCC(NC(=O)Nc2ccc3c(c2)CCO3)CC1	93
O=C1NC(=O)C(c2ccccc2)(c2ccccc2)N1	98&86
CN(n1cnc2ccsc2c1=O)S(=O)(=O)c1cc(C(F)(F)F)cc(C(F)(F)F)c1	114
CCCS(=O)(=O)NCCc1cc2ccc(C)c(C)c2[nH]c1=O	98
CCCOC(=O)c1ccc(N=Cc2ccc(C)s2)cc1	100
O=c1c2cccnc2nc(SCc2ccc(Cl)cc2)n1Cc1ccccc1	102
CC(=O)N1CCn2c1nc1ccccc12	95
C=CCn1cc(C(=O)OC)c(=O)c2cc(S(=O)(=O)N3CCCCCC3)ccc21	103
CN(Cc1ccccc1)S(=O)(=O)c1ccc(C(=O)Nc2nc3ccc4ccccc4c3s2)cc1	100
CC(=O)N1N=C(c2ccc(C)cc2)CC1c1cc2cc3c(cc2nc1Cl)OCO3 (stereo unspecified)	101
Cc1c(OCC(=O)NCc2ccccc2Cl)ccc2c3c(c(=O)oc12)CCC3	97
Cc1ccc2nc(-c3ccc(NC(=O)C4CCC4)cc3)sc2c1	108
CN(c1ncnc2c1cnn2-c1ccc(Cl)cc1)C1CCCCC1	99
C=CCNC(=O)C1=CC(c2ccc(C)cc2)=NS(=O)(=O)N1C	90
Cc1ccc2[nH]c(=O)c(CN(CC3CCCO3)C(=O)c3ccco3)cc2c1 (stereo unspecified)	102
O=C(NCCCN1CCCC1=O)c1ccc2c(c1)ncn2C1CCCCC1	112
O=C1NC(=O)C2(C(=O)N1)C(c1ccccc1Cl)CC(O)CC2c1ccccc1Cl (stereo unspecified)	98
CS(=O)(=O)N1CCn2c1nc1ccccc12	119
CCN(Cc1ccccc1)C(=O)Cn1c(=O)n(C2CCCCC2)c(=O)c2ccccc21	100
Cc1ccc2nc3c(cc(C(N)=O)c(=N)n3Cc3cccnc3)c(=O)n2c1	100
COc1ccc(N(C(=O)/C=C/c2ccc(OC)c(OC)c2)C2=CC3CCC(C2)N3C)cc1 (stereo unspecified)	100
Cn1cc(C=C2C(=O)OC3(CCCCC3)OC2=O)c2ccccc21	100
Cc1c(C)c(C)c(C(=O)C2CCN(C(=O)Nc3ccc(Cl)cc3Cl)CC2)c(C)c1C	105
COc1cccc(OC)c1C(=O)N1CCN(c2ncnc3scc(-c4ccccc4)c23)CC1	75
N#CCc1nc2ccccc2o1	106
Cc1c(N)c(=O)n(-c2ccccc2)n1C	100
c1ccc(CSc2ncn[nH]2)cc1	100
Oc1ccc(Cl)cc1N=Cc1ccco1	110
N#CC1c2ccccc2C=CN1C(=O)c1ccccc1F (stereo unspecified)	100
N#Cc1cccc(NCCN2CCNC2=O)n1	109
Cc1cccc(/C=N/n2cnnc2)c1	80
CCC(C)NC(=O)c1ccc(OC(C)=O)cc1 (stereo unspecified)	99
Cc1ccc(C)c(Cn2c(CO)nc3ccccc32)c1	102
CCOC(=O)c1nnn2c1nc(N(CC)CC)c1ccccc12	95
Oc1ccc(Cl)cc1C=NCCc1c[nH]c2ccccc12	93
Cc1sc2c(c1C)c(=O)n(-c1ccc(Cl)cc1)c(=O)n2CC(=O)NC1CCCCC1	94
O=C(O)/C=C/c1ccc2c(c1)CCC2	96
C[C@]12CCC3c4ccc(O)cc4CCC3C1CC[C@@H]2OC(=O)CCC1CCCC1 (stereo partly specified)	100
COc1cc(S(=O)(=O)NCCc2c[nH]c3ccccc23)ccc1-n1cnnn1	98
[O-]c1n[n+](-c2ccccc2)no1	100
COc1ccc(CCCc2nnc(SCC(=O)Nc3cc(F)ccc3C)o2)cc1C	100
COc1ccc(N(C)S(=O)(=O)c2c(C)[nH]c(=O)[nH]c2=O)cc1	101
CCc1nc(-c2ccc(OC)cc2)cc2cc(OC)c(OC)cc12	100
O=C(NC(=O)c1cccs1)OC[C@@H]1CCCN2CCCCC12 (stereo partly specified)	100
O=c1[nH]c(SCc2ccccc2)nc2c1cnn2-c1ccccc1	100
O=C(c1cc2c(s1)-c1ccccc1OC2)N1CCCC1	99
Cc1ccc(NS(=O)(=O)c2cccc(C(=O)NC3CC3)c2)c(C)c1	101
CC(C)(C(=O)Oc1ccccc1)S(=O)(=O)c1ccc(C(F)(F)F)cn1	98
COc1cccc(-n2ccnc2SCC(=O)Nc2ccccc2)c1	100
Cc1cccc(CN2C(=O)CSc3nc(C)cc(C)c32)c1	95
Clc1ccc(C2CC3CCC2N3)cn1 (stereo unspecified)	100
COC(=O)c1sc(S(=O)(=O)NC23CC4CC(CC(C4)C2)C3)c(C(=O)OC)c1C	99
N#Cc1ccsc1NC(=O)/C=C/c1ccccc1	110
CCC(=O)Nc1ccc2nc(-c3ccccc3)[nH]c2c1	98
N#Cc1ccc(-c2cccnc2)nc1SCC(=O)O	108
O=C(Nc1ccc(OCc2ccccc2)cc1)N1CCN(c2ccccn2)CC1	92
Cc1sc2c(c1C)CSC(C(=O)O)=C2	78
CCOC(=O)C1C2c3ccccc3C(c3ccccc32)C1C(=O)OCC (stereo unspecified)	101

Following part.
smiles	Vaccinia pol inh
CCc1ccc(-c2nc(CN3CCC(C(=O)NC4CC4)CC3)c(C)o2)cc1	76
COC(=O)C1=C(O)C2(C(=O)O)CC(C(=O)OC)=C(O)C(C(=O)O)(C1)C2	108
CCOc1cc2[nH]c(=S)n(CCCCC(=O)NC3CCCCC3)c(=O)c2cc1OCC	101
Cc1cc2c3c(C)n(C4CCCCC4)c(C)c3c(C)nn2c1	108
CSc1nc(-c2ccccc2)nc2c1Cc1ccccc1O2	94
Cc1ccc(S(=O)(=O)NCCC(c2ccc(F)cc2)c2ccco2)cc1 (stereo unspecified)	95
O=C(CCC(=O)c1ccc(F)cc1)OCc1ccc(Br)cc1	103
O=C(CSc1nc(NCc2ccccc2)c2ccccc2n1)c1ccc(F)cc1	93
O=S(=O)(c1ccccc1)c1cscc1NC(=S)Nc1ccccc1Cl	106
Cc1ccc2c(c1)c(-c1ccccc1)c(-c1ccccc1)n2CC(O)CNCc1ccco1 (stereo unspecified)	100
CO[C@H]1[C@H](O)[C@@H](O[C@H]2CC[C@]3(C=O)C4CC[C@]5(C)[C@@H](C6=CC(=O)OC6)CC[C@]5(O)C4CC[C@@H]3C2)O[C@@H](C)[C@@H]1O (stereo partly specified)	101
O=C(NC(Cc1ccccc1)C(=O)O)c1cccs1 (stereo unspecified)	102
O=C(CN1CCCc2ccccc21)N1CCc2ccccc21	99
O=C(NCC1CCCO1)c1ccc2c(c1)sc1nc(-c3ccccc3)cn12 (stereo unspecified)	99
O=C(Nc1ccccc1)Nc1ccccn1	100
O=C(CN1C(=O)/C(=C\C=C\c2ccccc2)SC1=S)Nc1ccc(F)cc1	98
CC1CN(c2ccc(NC(=S)Nc3ccc(N4CC(C)OC(C)C4)cc3)cc2)CC(C)O1 (stereo unspecified)	91
Clc1nc2ccccc2nc1-c1ccccc1	102
O=C(O)CSc1nnnn1-c1ccccc1	100
COc1ccc(-c2csc(-c3ccc(OC)cc3)n2)cc1	97
O=C(O)Cc1ccc(O)cc1	101
Cc1ccc(Sc2ncccc2C2=N/C(=C\N(C)C)C(=O)O2)cc1	116
Cc1sc(NC(=O)C(C)Oc2ccc(Cl)cc2Cl)c(C(N)=O)c1C (stereo unspecified)	99
COc1ccc2oc3cc(C)nc(-c4ccccc4)c3c2c1	96
